YB-1 expression = inhibitors of YB-1 gene expression, primary screen, cell-based, fluorescence | 30,000 compounds, 0.37% hits | U2OS, qRT-PCR YB-1 vs CDIP delta delta Cp, 16 h; stronger effect = higher value; zero = DMSO, each unit about twofold | delta delta Cp (YB-1 minus CDIP) (no concentration beside the values) | AID 434959, 2010;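 active = delta delta Cp rounded down to an integer at or above 3, about 3 SD of DMSO wells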;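 note: higher means less YB-1 transcript or more CDIP transcript relative to DMSO; stock transfer was 100 nL into about 100 µL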
Active calls of the source: *. Only part of the results is shown. The share of hits here may be higher or lower than overall.

SMILES	YB-1 expression
COC(=O)C(CC#Cc1ccc2c(c1)[C@]1(C(=O)N2)[C@H](C(=O)NC[C@H](O)c2ccccc2)[C@H]2C(=O)O[C@H](c3ccccc3)[C@H](c3ccccc3)N2[C@@H]1c1ccc(OCCO)cc1)C(=O)OC	-0.13
NCCCCCCNC(=O)[C@@H]1C[C@@H]2C(=O)NCC(=O)N2[C@@H]1c1cccc(OCCO)c1	0.081
C[C@@H]1CN([C@H](C)CO)C(=O)CCCn2nncc2CO[C@H]1CN(C)S(=O)(=O)c1ccccc1C#N	-0.079
C[C@H](CO)N1C[C@H](C)[C@H](CN(C)C(=O)Oc2ccccc2)OCc2cn(nn2)CCCC1=O	-0.25
COc1ccc(C#Cc2cnc3c(c2)C(=O)N([C@H](C)CO)C[C@H](C)[C@H](CN(C)C(=O)Nc2cccc4ccccc24)O3)cc1OC	0.097
C[C@H](CO)N1C[C@H](C)[C@H](CN(C)C(=O)Nc2cccc3ccccc23)Oc2ncc(C#Cc3ccc(C(F)(F)F)cc3)cc2C1=O	-0.18
C[C@H](CO)N1C[C@H](C)[C@H](CN(C)C(=O)Nc2ccc3c(c2)OCO3)Oc2ncc(C#CC(C)(C)O)cc2C1=O	-0.26
C[C@H](CO)N1C[C@H](C)[C@@H](CN(C)C(=O)Nc2ccccc2C(F)(F)F)OCc2cnnn2CCCC1=O	-0.17
COc1cccc(-c2cnc3c(c2)C(=O)N([C@H](C)CO)C[C@H](C)[C@H](CN(C)S(=O)(=O)c2cccc(F)c2)O3)c1	-0.16
O=C1O[C@H](c2ccccc2)[C@H](c2ccccc2)N2[C@H]1[C@@H](C(=O)O)[C@]1(C(=O)Nc3ccc(C#CCCO)cc31)[C@H]2c1ccc(OCCO)cc1	-0.07
CN(C)C(=O)[C@@]1(Cc2ccccc2N=[N+]=[N-])N=C(c2ccc(OCCCO)cc2)O[C@H]1c1ccccc1	0.0052
Cc1nc(S(=O)(=O)N[C@H]2CCN(Cc3cccc(OCCO)c3)C2)cn1C	0.53
C[C@H](CO)N1C[C@H](C)[C@H](CN(C)C(=O)Nc2ccccc2)Oc2ncc(C#CC(C)(C)O)cc2C1=O	-0.43
COc1cc(Br)cc(/C=N/NC(=O)c2cccc(C(=O)NO)c2)c1O	-0.46
CNC[C@H]1OCc2cn(nn2)CCCC(=O)N([C@H](C)CO)C[C@H]1C	-0.09
O=C(NO)c1cccc(C(=O)N/N=C/c2ccc(O)c(F)c2)c1	-0.3
C[C@H]1CN([C@@H](C)CO)C(=O)CCCn2cc(nn2)CO[C@H]1CN(C)Cc1ccc2cccnc2c1	-0.18
C[C@@H]1CN([C@@H](C)CO)C(=O)CCCn2nncc2CO[C@H]1CN(C)Cc1ccc(C(=O)O)cc1	0.34
COC(=O)N(C)C[C@H]1OCc2cn(nn2)CCCC(=O)N([C@H](C)CO)C[C@@H]1C	-0.0014
Cc1nc(S(=O)(=O)N[C@H]2CCN(Cc3ccc(OCCO)cc3)C2)cn1C	-0.6
CC(C)CNC(=O)[C@@]1(C)c2ccccc2C(=O)N(Cc2cc(F)cc(C(F)(F)F)c2)[C@H]1c1ccc(CO)cc1	0.13
O=C(NCCN1CCOCC1)[C@@]1(CCS(=O)(=O)c2ccccc2)N=C(c2ccc(OCCCO)cc2)O[C@H]1c1ccccc1	0.25
O=C(N/N=C/c1ccc(I)cc1)c1ccccc1O	0.31
C[C@H]1CN([C@@H](C)CO)C(=O)CCCn2cc(nn2)CO[C@H]1CN(C)C(=O)NC1CCCCC1	-0.36
C[C@H](CO)N1C[C@H](C)[C@@H](CN(C)Cc2ccc(C(=O)O)cc2)OCc2cnnn2CCCC1=O	0.22
COC(=O)C(CC#Cc1ccc2c(c1)[C@]1(C(=O)N2)[C@H](C(=O)N2CCN(c3ncccn3)CC2)[C@H]2C(=O)O[C@H](c3ccccc3)[C@H](c3ccccc3)N2[C@@H]1c1ccc(OCCO)cc1)C(=O)OC	0.23
O=C(CCCCC(=O)N/N=C/c1ccc(I)cc1)NO	0.078
COc1ccc([Si](C)(C)[C@@H]2[C@@H](CCO)O[C@]3(C(=O)N(Cc4cccc(NC(=O)[C@H](C)O)c4)c4ccccc43)[C@H]2C)cc1	-0.73
C[C@H](CO)N1C[C@H](C)[C@H](CN(C)Cc2ccncc2)OCc2cn(nn2)CCCC1=O	0.13
C[C@@H]1CN([C@@H](C)CO)C(=O)CCCn2nncc2CO[C@@H]1CN(C)S(=O)(=O)c1ccc(Cl)cc1	-0.11
COC(=O)CCCCCCC(=O)N/N=C/c1ccc(CO)o1	0.3
Cc1ccc(S(=O)(=O)N(C)C[C@@H]2OCc3cnnn3CCCC(=O)N([C@H](C)CO)C[C@@H]2C)cc1	0.24
Cc1noc(C)c1NC(=O)N(C)C[C@H]1OCc2cnnn2CCCC(=O)N([C@H](C)CO)C[C@H]1C	-0.33
CCCN(C)C[C@@H]1Oc2ncc(C#CCN(C)C)cc2C(=O)N([C@H](C)CO)C[C@@H]1C	-0.32
COc1cccc(CN(C)C[C@@H]2OCc3cn(nn3)CCCC(=O)N([C@@H](C)CO)C[C@H]2C)c1	0.5
O=C(CCCCCCC(=O)Nc1ccccc1O)N/N=C/c1ccc(-c2ccccc2)c(F)c1	0.23
CC(C)(C)OC(=O)Nc1cccc(/C=N/NC(=O)c2ccccc2O)c1	0.081
Cc1ccc(CN(C)C[C@H]2OCc3cn(nn3)CCCC(=O)N([C@H](C)CO)C[C@H]2C)cc1	0.26
O=C(O)CCCCCCC(=O)N/N=C/c1ccc(Br)o1	0.085
C[C@@H]1CN([C@H](C)CO)C(=O)c2cc(NC(=O)CCCCCC(=O)Nc3ccccc3N)ccc2O[C@@H]1CN(C)Cc1ccc(Oc2ccccc2)cc1	0.24
COC(=O)CCCCCCC(=O)N/N=C/c1ccc(O)c(F)c1	0.46
C=CCN1Cc2ccccc2[C@H]2OC(c3ccc(OCCCO)cc3)=N[C@@]2(CCS(=O)(=O)c2ccccc2)C1=O	-0.083
C[C@H](CO)N1C[C@H](C)[C@H](CN(C)C(=O)Nc2ccc(N3CCCCC3)cc2)OCc2cnnn2CCCC1=O	-0.18
C[C@H](CO)N1C[C@H](C)[C@@H](CN(C)S(=O)(=O)c2cccc(F)c2)OCc2cnnn2CCCC1=O	-0.095
COCCOC(=O)N1C(=O)[C@@]2(c3cc(C#CC4(O)CCCCCC4)ccc31)[C@H](C(N)=O)[C@H]1C(=O)O[C@H](c3ccccc3)[C@H](c3ccccc3)N1[C@@H]2c1ccccc1OCCO	-0.23
C[C@@H]1CN([C@@H](C)CO)C(=O)CCCn2nncc2CO[C@@H]1CN(C)Cc1ccc2c(c1)OCO2	0.04
COc1cccc(NC(=O)N(C)C[C@@H]2OCc3cn(nn3)CCCC(=O)N([C@H](C)CO)C[C@@H]2C)c1	0.041
C[C@@H]1CN([C@H](C)CO)C(=O)CCCn2cc(nn2)CO[C@H]1CN(C)S(=O)(=O)c1ccc(Oc2ccccc2)nc1	-0.18
CCOc1cccc(/C=N/NC(=O)CCCCCCC(=O)Nc2ccccc2O)c1OCC	-0.04
Cc1ccsc1/C=N/NC(=O)c1cccc(C(=O)NO)c1	0.016

Brought forward from above: 5 entries; new compounds follow.
SMILES	YB-1 expression
C[C@@H]1CN([C@@H](C)CO)C(=O)CCCn2nncc2CO[C@@H]1CN(C)Cc1ccc2c(c1)OCO2	0.04
COc1cccc(NC(=O)N(C)C[C@@H]2OCc3cn(nn3)CCCC(=O)N([C@H](C)CO)C[C@@H]2C)c1	0.041
C[C@@H]1CN([C@H](C)CO)C(=O)CCCn2cc(nn2)CO[C@H]1CN(C)S(=O)(=O)c1ccc(Oc2ccccc2)nc1	-0.18
CCOc1cccc(/C=N/NC(=O)CCCCCCC(=O)Nc2ccccc2O)c1OCC	-0.04
Cc1ccsc1/C=N/NC(=O)c1cccc(C(=O)NO)c1	0.016
C[C@H](CO)N1C[C@H](C)[C@H](CN(C)Cc2ccncc2)Oc2ncc(C#CC(C)(C)O)cc2C1=O	0.17
CC(C)NC(=O)N(C)C[C@@H]1OCc2cn(nn2)CCCC(=O)N([C@H](C)CO)C[C@@H]1C	-0.57
C=CCNC(=O)[C@@H]1[C@H]2C(=O)O[C@H](c3ccccc3)[C@H](c3ccccc3)N2[C@H](c2ccccc2OCCO)[C@@]12C(=O)Nc1ccc(C#Cc3ccc(OC)cc3)cc12	-0.093
C[C@@H]1CN([C@H](C)CO)C(=O)CCCn2nncc2CO[C@@H]1CN(C)S(=O)(=O)c1ccc2c(c1)OCCCO2	-0.38
C[C@H](CO)N1C[C@H](C)[C@H](CN(C)C(=O)Nc2ccc(-c3cccs3)cc2)OCc2cnnn2CCCC1=O	-0.52
C[C@H](CO)N1C[C@H](C)[C@H](CN(C)S(=O)(=O)c2cccs2)Oc2ncc(/C=C/c3ccccc3)cc2C1=O	-13
C=CCNC(=O)[C@@H]1[C@H]2C(=O)O[C@H](c3ccccc3)[C@H](c3ccccc3)N2[C@H](c2ccc(OCCO)cc2)[C@@]12C(=O)Nc1ccc(C#Cc3ccc(OC)cc3)cc12	-0.012
C[C@H]1CN([C@@H](C)CO)C(=O)CCCn2cc(nn2)CO[C@@H]1CN(C)S(=O)(=O)c1cn(C)cn1	-0.22
C[C@@H]1CN([C@H](C)CO)C(=O)CCCn2cc(nn2)CO[C@@H]1CN(C)C	0.064
[N-]=[N+]=NCc1ccccc1C[C@]1(C(=O)NCC(O)CO)N=C(c2ccc(OCCCO)cc2)O[C@H]1c1ccccc1 (stereo partly drawn)	0.6
COc1cccc(NC(=O)N(C)C[C@@H]2OCc3cnnn3CCCC(=O)N([C@@H](C)CO)C[C@H]2C)c1	-0.23
O=C(CCCCCCC(=O)Nc1ccccc1O)N/N=C/[C@@H](O)[C@H](O)[C@H](O)CO	-0.6
C[C@H](CO)N1C[C@H](C)[C@H](CN(C)C(=O)NC2CCCCC2)Oc2ncc(-c3cccc(F)c3)cc2C1=O	-0.008
C[C@H]1CN([C@@H](C)CO)C(=O)CCCn2cc(nn2)CO[C@H]1CN(C)C(=O)c1ccc2ccn(C)c2c1	0.12
O=C(O)C1=C[C@H](c2ccc3c(c2)OCO3)C[C@H](OCCCCO)O1	-0.18
C[C@@H]1CN([C@@H](C)CO)C(=O)CCCn2nncc2CO[C@H]1CN(C)C	0.71
CC(C)NC(=O)N(C)C[C@H]1OCc2cn(nn2)CCCC(=O)N([C@@H](C)CO)C[C@H]1C	-0.026
C[C@H](CO)N1C[C@H](C)[C@@H](CN(C)C(=O)c2ccc(N3CCN(C)CC3)cc2)OCc2cn(nn2)CCCC1=O	0.064
O=C1O[C@@H](c2ccccc2)[C@@H](c2ccccc2)N2[C@@H](c3ccc(OCCO)cc3)[C@]3(C(=O)Nc4ccccc43)[C@@H](C(=O)N3CCCCCCC3)[C@H]12	-0.1
COc1ccc(C#Cc2ccc3c(c2)[C@]2(C(=O)N3)[C@H](C(N)=O)[C@H]3C(=O)O[C@H](c4ccccc4)[C@H](c4ccccc4)N3[C@@H]2c2ccc(OCCO)cc2)cc1	0.079

Individual results from above.
YB-1 expression with CC(C)NC(=O)N(C)C[C@H]1OCc2cn(nn2)CCCC(=O)N([C@@H](C)CO)C[C@H]1C reads -0.026
YB-1 expression with O=C(O)C1=C[C@H](c2ccc3c(c2)OCO3)C[C@H](OCCCCO)O1 reads -0.18
YB-1 expression with COc1ccc(C#Cc2ccc3c(c2)[C@]2(C(=O)N3)[C@H](C(N)=O)[C@H]3C(=O)O[C@H](c4ccccc4)[C@H](c4ccccc4)N3[C@@H]2c2ccc(OCCO)cc2)cc1 reads 0.079

(next part)
SMILES	YB-1 expression
CN(C)C(=O)[C@]1(Cc2ccccc2N=[N+]=[N-])N=C(c2ccc(OCCCO)cc2)O[C@@H]1c1ccccc1	-0.34
CN(C)CCCC[C@@H]1NC(=O)[C@H]2C[C@@H](C(=O)NCCCCCN)[C@@H](c3cccc(OCCO)c3)N2C1=O	-0.22
C=CC1c2cc(O)c(OC)cc2CCN1Cc1sc2ccccc2c1Cl (stereo not drawn)	0.0043
O=C(NO)c1ccc(C(=O)N/N=C/c2c[nH]c3ccccc23)cc1	-0.062
C[C@H](CO)N1C[C@H](C)[C@@H](CN(C)Cc2ccc(C(=O)Nc3ccccc3N)cc2)Oc2ccc(NC(=O)Cn3cnnn3)cc2C1=O	0.23
C[C@@H]1CN([C@@H](C)CO)C(=O)CCCn2nncc2CO[C@H]1CN(C)C(=O)c1ccncc1	-0.26
COc1ccc([Si](C)(C)[C@H]2[C@H](CCn3cc([C@H](O)c4ccccc4)nn3)O[C@@]3(C(=O)N(Cc4ccc(N5CCC5=O)cc4)c4ccccc43)[C@@H]2C)cc1	0.54
COc1ccc(S(=O)(=O)N(C)C[C@@H]2Oc3ncc(-c4cc5ccccc5o4)cc3C(=O)N([C@H](C)CO)C[C@@H]2C)cc1	-0.34
COc1cccc(NC(=O)N(C)C[C@@H]2OCc3cnnn3CCCC(=O)N([C@@H](C)CO)C[C@@H]2C)c1	-0.031
Cc1noc(C)c1NC(=O)N(C)C[C@@H]1Oc2ncc(C#CC(C)(C)O)cc2C(=O)N([C@H](C)CO)C[C@@H]1C	-0.19
COc1cc(/C=N/NC(=O)CCCCCCC(=O)Nc2ccccc2O)c(Br)cc1O	-0.2
C[C@@H]1CN([C@@H](C)CO)C(=O)CCCn2cc(nn2)CO[C@H]1CN(C)Cc1ccc2c(c1)OCCO2	0.12
C[C@H](CO)N1C[C@H](C)[C@H](CN(C)S(=O)(=O)c2ccccc2)OCc2cn(nn2)CCCC1=O	0.11
O=C1O[C@H](c2ccccc2)[C@H](c2ccccc2)N2[C@H]1[C@@H](C(=O)N1CCN(c3ncccn3)CC1)[C@]1(C(=O)Nc3ccc(C#CC4=CCCCC4)cc31)[C@H]2c1ccc(OCCO)cc1	-0.34
O=C(CCCCCCC(=O)N/N=C/c1ccc(OCCO)cc1)NO	-0.79
O=C(N/N=C/c1ccc(F)cc1)c1ccccc1O	-0.32

Grouped by structure: the compounds so far with a Cl atom (2)
SMILES	YB-1 expression
C[C@@H]1CN([C@@H](C)CO)C(=O)CCCn2nncc2CO[C@@H]1CN(C)S(=O)(=O)c1ccc(Cl)cc1	-0.11
C=CC1c2cc(O)c(OC)cc2CCN1Cc1sc2ccccc2c1Cl (stereo not drawn)	0.0043

High-throughput results (PubChem)
